# Assay outcomes as filed in PubChem BioAssay.
# RanGTP-Imp inh: inhibitors of RanGTP-importin-beta interaction, primary screen, biochemical, FRET, CFP-Ran, YFP-importin-beta, homogeneous. inhibition, % (test concentration not listed). cell-free CFP-Ran/YFP-importin-beta FRET ratio. AID 2216. hit rate 1.1% among 300,000;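 active = most replicates above 15%; inconclusive = exactly half above 15%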;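 also: 0% = DMSO wells and 100% = Ran loaded with GDP instead of GTP; wells of about 40 µL received 100 nL stock; the first replicate is given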
# HNF4A DNA FP: change in binding of human HNF4 alpha to DNA | AID 1224865 | activity change, % at 10 µM | hit rate 0.3% among 360,000 | P41235 | HNF4a-FITC DNA binding, fluorescence polarization, 1 h; in the data active = activity change above about 30%, passing the limit was not always enough;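 also: controls were the assay level and a saturating level of protein; the project sought stronger binding though the title names inhibitors; some compounds called inactive have numbers as strong as hits; positive values seem to mean higher polarization but the record does not say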
# Vif TR-FRET: inhibitors of Vif binding to APOBEC3G peptide, primary screen, biochemical, TR-FRET, GST-Vif 1-94, biotin-A3G peptide, dose response retest (AID 1117319); hit rate 0.57% among 260,000; inhibition, %; hits with a dose series show IC50 in µM; TR-FRET GST-Vif / biotin-A3G peptide binding; higher % means a stronger effect; test concentration not given here; strong numbers were not always called active;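 active = above the screen mean plus three standard deviations and confirmed in dose response; inconclusive = results disagree or hit not tested in dose response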;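 also: Vif residues 1-94 fused to GST binding biotinylated APOBEC3G peptide 110-148; 0% = full assay without inhibitor and 100% = GST in place of GST-Vif; retest series ran down from 100 µM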
# Calb FLC: C. albicans growth modulation with fluconazole. C. albicans CaCi-2 (fluconazole-resistant clinical isolate) + fluconazole, Alamar Blue growth, 48 h. growth inhibition, % (no concentration beside the values). hit rate 0.57% among 300,000. AID 1979;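 active = most replicates above 75%; inconclusive = exactly half above 75%; inactive = most below 75%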;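 also: all wells also contain fluconazole at 8 µg/ml as a sub-toxic cotreatment; 0% = median of DMSO wells and 100% = median of geldanamycin control wells; wells of about 8 µL received 7.5 nL stock; the first replicate is given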
# LANA-H2B inh: blocks KSHV LANA binding to histone H2A/H2B; AID 2629; hit rate 0.6% among 320,000; Q9QR71; inhibition, % (no concentration beside the values); cell-free LANA-H2A/H2B peptide, fluorescence polarization; in the data active = inhibition mostly above about 10%, no sharp cut-off; inactive = mostly below about 6.7%;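 also: stock transfer was 7.5 nL into about 10 µL; 0% = median of vehicle wells and 100% = median of positive control wells; one replicate is shown; the record names a cut of 25% in any replicate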
# Target sequence (Q9QR71 whole entry, looked up): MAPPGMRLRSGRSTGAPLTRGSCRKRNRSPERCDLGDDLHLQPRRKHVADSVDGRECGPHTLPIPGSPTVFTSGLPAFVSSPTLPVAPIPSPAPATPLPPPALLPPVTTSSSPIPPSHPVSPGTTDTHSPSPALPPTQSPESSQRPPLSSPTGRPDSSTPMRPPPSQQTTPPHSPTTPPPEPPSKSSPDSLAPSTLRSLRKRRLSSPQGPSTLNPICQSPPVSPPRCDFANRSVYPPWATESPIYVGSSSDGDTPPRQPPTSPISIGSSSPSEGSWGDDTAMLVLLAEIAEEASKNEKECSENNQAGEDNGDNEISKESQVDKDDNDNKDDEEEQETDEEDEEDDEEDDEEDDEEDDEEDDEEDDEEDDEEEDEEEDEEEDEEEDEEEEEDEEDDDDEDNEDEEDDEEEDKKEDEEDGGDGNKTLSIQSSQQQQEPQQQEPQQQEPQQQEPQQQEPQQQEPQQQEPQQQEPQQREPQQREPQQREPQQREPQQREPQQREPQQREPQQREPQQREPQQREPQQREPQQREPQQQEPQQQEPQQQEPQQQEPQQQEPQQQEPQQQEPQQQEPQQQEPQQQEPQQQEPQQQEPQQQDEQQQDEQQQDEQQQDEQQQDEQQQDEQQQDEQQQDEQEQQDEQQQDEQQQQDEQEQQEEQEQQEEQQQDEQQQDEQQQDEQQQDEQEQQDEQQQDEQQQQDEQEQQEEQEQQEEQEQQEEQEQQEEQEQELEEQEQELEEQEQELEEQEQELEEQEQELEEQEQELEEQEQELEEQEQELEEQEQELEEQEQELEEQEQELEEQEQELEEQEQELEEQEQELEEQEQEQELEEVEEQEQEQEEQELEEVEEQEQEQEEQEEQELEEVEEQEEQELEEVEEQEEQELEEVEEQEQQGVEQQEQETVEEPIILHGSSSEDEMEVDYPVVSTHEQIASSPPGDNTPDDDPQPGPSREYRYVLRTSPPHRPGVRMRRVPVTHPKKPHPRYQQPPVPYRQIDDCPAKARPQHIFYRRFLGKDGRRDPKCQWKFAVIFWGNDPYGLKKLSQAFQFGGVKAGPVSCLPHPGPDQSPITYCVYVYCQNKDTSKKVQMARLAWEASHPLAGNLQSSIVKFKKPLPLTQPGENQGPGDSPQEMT
# ALR H2O2 inh: blocks human ALR sulfhydryl oxidase activity; purified ALR, DTT oxidation, H2O2 HRP-luminol luminescence; inhibition, % (no concentration beside the values); hit rate 3.8% among 290,000; AID 485317;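 active = mean and each replicate at 75% or more; inconclusive = only one of the two met; inactive = neither met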;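 also: stock transfer was 7.5 nL into about 7.5 µL; 0% = neutral wells and 100% = wells with inactivated enzyme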
# Beta2AR agonist: agonists of human beta-2 adrenergic receptor inducing internalization; Am2.2-beta2AR cells, FAP receptor internalization, flow cytometry; reference of the scale not given here; response, % (concentration not given with the values); hit rate 0.43% among 340,000;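 active = response above a set limit, near 3 SD of response in nonfluorescent compounds, cut at about 42% in these data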;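 also: stock transfer was 100 nL into about 11 µL; a reference agonist was the positive control; negative values mostly stem from fluorescent compounds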
# Numbers without * were called inactive; ? = inconclusive; nt = not tested or not shown; & = joins results of further samples. Compounds as they come; 6.3% or so of the library scored in one or more.
SMILES,RanGTP-Imp inh,HNF4A DNA FP,Vif TR-FRET,Calb FLC,LANA-H2B inh,ALR H2O2 inh,Beta2AR agonist
CCn1c(C)cs/c1=N\C(=S)Nc1ccccc1C,3.3,1.2,nt,-8,-2.6,-8,3
Cc1ccc(NC(=O)CCc2nnc3ccc(N4CCC(C)CC4)nn23)nc1,4.2,-4.6,nt,?,2.6,-4,-22
Cc1cc([N+](=O)[O-])ccc1NC(=O)c1cncc(Br)c1,0.9,1.2,-8%,3,-2.2,-20,-7
Cc1ccc(C)c(Cn2c(C)nc3c(sc(=S)n3-c3ccccc3)c2=O)c1,2.5,4.0,2%,-7,6.7,-5,4
O=C(CCCN1C(=O)/C(=C\c2cccs2)SC1=S)Nc1cccc(C(=O)O)c1,2.3,-2.8,0%,-4,0.5,-7,14
COc1ccccc1Oc1ccc2c(c1)C(=O)N(CC(=O)O)C2=O,5.2,2.3,-9%,-16,-0.8,-1,-8
CCn1c(Cc2ccccc2)nnc1SCc1nc2ccccc2c(=O)[nH]1,-2.4,1.7,0%,7,-0.9,6,5
Cc1ccc(C(=O)NCCC(=O)N2CCC3(CC2)NCCc2[nH]cnc23)cc1C,0.1,2.1,nt,2,3.8,-7,-2
CC(=O)Nc1cccc(/C(C)=N/NC(=O)c2ccc(Cl)cc2Cl)c1,-0.2,2.4,8%,-6,-3.8,-5,-4
COc1ccc(N2C(=O)CC(c3ccc([N+](=O)[O-])cc3)C2=O)cc1 (centres undefined),3.9,2.9,-6%,-9,-1.4,nt,-3
CCOc1ccccc1C=Nc1ccccc1C(=O)Nc1ccccc1,-0.5,1.1,5%,-7,-5.7,nt,1
CCOc1ccc(-c2nnn(CC(=O)c3ccc4c(c3)OCCO4)n2)cc1OCC,5.2,-0.8,29µM*,7,-2.8,-3,3
COc1cc(CCCN2C(=S)NC[C@@H]2CC2CCCCC2)cc(OC)c1OC,2.5,4.7,?,6,4.8,nt,-2
O=C(NCCCl)Nc1cc([N+](=O)[O-])ccc1Cl,-3.5,-1.2,-8%,-26,-2.9,-11,-9
Cc1ccc(NC(=O)CN(Cc2ccccc2)S(C)(=O)=O)cc1C,8.2,0.0,4%,-2,4.2,-20,0
Cc1nonc1OCCNCc1c(C(=O)N2CCCCCCC2)nc2ccc(Cl)cn12,-2.3,3.1,9%,-28,-1.7,-1,-6
COc1ccc(CC(=O)N2CC3(C)CC2CC(C)(C)C3)cc1 (centres undefined),-0.7,-3.7,1%,-16,2.4,-4,-4
O=C(NCCc1ccccc1F)C(=O)Nc1nccs1,?,3.4,-10%,-1,3.1,2,6
CC1CN(S(=O)(=O)c2cccc(C(=O)N(C)C3CCN(C)CC3)c2)CC(C)O1 (centres undefined),nt,-0.7,4%,nt,1.2,1,-10
O=C(Cc1ccc(NS(=O)(=O)c2ccc(Cl)c(Cl)c2)cc1)NCCN1CCOCC1,nt,-1.6,0%,nt,nt,nt,5
CC(C)(C)C(=O)CN1C(=O)NC(C)(Cc2ccc3c(c2)OCO3)C1=O (centres undefined),2.8,1.1,nt,-17,1.0,4,9
CN1CCC(=C2c3ccccc3C=Cc3ccccc32)CC1,-1.4,-2.6,-1%,nt,1.7,nt,3
Cc1ccc(CC(=O)Nc2ccccc2N2CCOCC2)cc1C,nt,3.3,-3%,nt,2.2,-12,2
O=C(CN1c2ccccc2Sc2ccccc21)N/N=C/c1ccc([N+](=O)[O-])cc1,1.9,-1.5,-6%,-1,-2.6,-11,8
CCc1c(C)nc2ncnn2c1N1CCCC(C(=O)Nc2cc(F)ccc2C)C1 (centres undefined),-1.8,-0.8,1%,6,2.0,-2,2

# Rewritten with tabs: entries from further up
Structure	RanGTP-Imp inh	HNF4A DNA FP	Vif TR-FRET	Calb FLC	LANA-H2B inh	ALR H2O2 inh	Beta2AR agonist
O=C(NCCCl)Nc1cc([N+](=O)[O-])ccc1Cl	-3.5	-1.2	-8%	-26	-2.9	-11	-9
Cc1ccc(NC(=O)CN(Cc2ccccc2)S(C)(=O)=O)cc1C	8.2	0.0	4%	-2	4.2	-20	0
Cc1nonc1OCCNCc1c(C(=O)N2CCCCCCC2)nc2ccc(Cl)cn12	-2.3	3.1	9%	-28	-1.7	-1	-6
COc1ccc(CC(=O)N2CC3(C)CC2CC(C)(C)C3)cc1 (centres undefined)	-0.7	-3.7	1%	-16	2.4	-4	-4
O=C(NCCc1ccccc1F)C(=O)Nc1nccs1	?	3.4	-10%	-1	3.1	2	6

# (more compounds)
SMILES,RanGTP-Imp inh,HNF4A DNA FP,Vif TR-FRET,Calb FLC,LANA-H2B inh,ALR H2O2 inh,Beta2AR agonist
OCc1ccccc1N=Cc1cccnc1,7.4,3.7,nt,5,1.6,1,9
COc1ccc2c(c1)n([O-])c1c([n+]2=O)CCC1,0.4,nt,5.2µM*,-2,0.5,-19,nt
CC(=O)NCCNc1ccc([N+](=O)[O-])cn1,1.2,-3.4,2%,-9,2.7,nt,2
Cc1ccc(C(=O)/C=C2\NCC(C)NC2=O)cc1 (centres undefined),2.0,3.0,24%,-3,-6.9,nt,0
CCOC(=O)c1c(-c2ccccc2)csc1NC(=O)c1ccc(S(=O)(=O)N2CCOCC2)cc1,1.8,-3.9,nt,36,1.8,7,10
COc1ccc(NC(=O)CC(=O)Nc2ccc(OC)cc2)cc1,6.4,-5.4,nt,15,-0.3,-10,0
CCOC(=O)C1(CC2CCCCO2)CCN(S(=O)(=O)c2c(C)nn(C)c2C)CC1 (centres undefined),-2.4,-0.8,-6%,-2,-0.6,-3,-1
Cc1[nH]c2ccccc2c1C(=O)CSc1nccc(=O)[nH]1,9.7,-1.9,nt,2,-8.0,-9,-1
N#C/C(=C\c1c(Cl)cccc1Cl)c1nc2ccccc2[nH]1,8.4,0.4,2%,?,5.1,2,56*
O=C(CC(Nc1ccccc1)c1ccc(F)cc1)c1ccccc1 (centres undefined),2.8,4.3,?,-10,-3.4,4,4
CCOC(=O)c1c(NC=O)sc2c1CCC2,0.5,-5.7,6%,10,9.1,-6,11
CCOc1ccccc1NC(=O)C1CCCN(S(C)(=O)=O)C1 (centres undefined),-3.6,-3.5,nt,2,4.3,nt,3
CCOC(=O)c1c(-c2ccccc2)csc1N1C(=O)Nc2ccccc2N1O,nt,-1.9,?,37,-4.2,52,1
COc1ccc(CN2CCN(Cc3ccon3)CC2CCO)c(C)c1C (centres undefined),-2.2,-2.0,?,-4,2.2,-1,-4
CCOC(=O)Nc1cc(C(=O)OCC)c(C)nc1C,3.6,-2.5,4%,-5,-1.5,-5,-2
O=C(N/N=C/C=C/c1ccccc1)c1cc(C2CC2)[nH]n1,0.4,1.8,nt,-3,0.9,nt,0
Cc1ccc(S(=O)(=O)N2CCOCC2)cc1C(=O)Nc1ccc(S(=O)(=O)Nc2nccs2)cc1,0.3,-4.3,13%,-3,-2.6,-2,-5
O=C1NCC(=O)N2C(c3ccccc3)c3[nH]c4ccccc4c3C[C@@H]12 (some centres undefined),3.8,2.0,nt,-2,-0.6,-4,-5
CN(c1ccccc1)S(=O)(=O)c1cccc(C(=O)NCC(=O)Nc2ccc(F)c(F)c2F)c1,nt,-1.8,nt,nt,-4.5,-12,-2
COc1ccc(OC[C@@H](O)CNC(=O)c2cccc3c2C(=O)c2ccc(Cl)cc2S3(=O)=O)cc1,nt,-7.5,nt,nt,0.7,-15,16
CCOc1ccc(S(=O)(=O)Nc2ccc(C(=O)NCC(c3ccco3)N3CCCCC3)cc2)cc1 (centres undefined),1.7,3.4,-3%,-3,-0.2,-5,4
COc1ccc(C(=O)NNC(=O)Cc2nc3ccccc3n2C)cc1,nt,-1.0,28%,nt,2.4,11,-8
CC(C)N1CCN(Cc2ccc(Oc3ncccn3)cc2)CC1CCO (centres undefined),1.4,2.1,18%,1,0.3,-1,-5
COc1cc2cnc(-c3ccccc3)c(-c3ccc(C(F)(F)F)cc3)c2cc1OC,nt,-0.9,nt,nt,-0.9,-2,-1
CCCCn1c(-c2ccccc2C)nc2cc3[nH]c(=O)c(C(C)C)nc3cc21,1.5,9.1,nt,-4,-4.0,-17,-10
SMILES,RanGTP-Imp inh,HNF4A DNA FP,Vif TR-FRET,Calb FLC,LANA-H2B inh,ALR H2O2 inh,Beta2AR agonist
Cc1ccc(NC(=O)COc2ccc(N(C)C(=O)C(C)(C)C)cc2)cc1S(=O)(=O)N1CCCCC1,nt,0.5,nt,nt,1.4,2,4
CN(CC(=O)Nc1cc(Cl)ccc1C#N)C1CCS(=O)(=O)C1 (centres undefined),nt,-0.9,-6%,nt,-1.4,nt,-2
O=C(c1ccco1)N1CCN(S(=O)(=O)c2ccc(Cl)cc2)CC1,-1.9,-0.7,-5%,6,3.0,-5,-12
COC(=O)c1cc(OC)c(OC)cc1NC(=S)NC(=O)c1ccco1,?,1.0,nt,2,2.5,-1,-1
CCOc1ccc(C2C3=C(Nc4nc(N)[nH]c(=O)c42)c2ccccc2C3=O)cc1 (centres undefined),3.6,2.1,10%,7,3.2,18,-10
COC(=O)c1cc2c(C)[nH]c(C)c2cc(C(=O)OC)c1=O,1.6,0.4,nt,-3,4.5,-39,-3
CC(C(=O)OCC(=O)c1ccccc1)N1C(=O)c2ccccc2C1=O (centres undefined),2.0,2.8,9%,-1,3.2,-5,-6
Cc1ccc(-n2nc(C(=O)NCc3ccco3)c3c4ccccc4n(C)c3c2=O)cc1,-3.1,2.2,14%,3,-0.5,-9,40
O=C(O)c1ccc(NC(=O)c2cccc(C(=O)Nc3ccc(C(=O)O)cc3)n2)cc1,5.4,-1.2,-2%,-4,-5.3,2,1
O=C(Nc1ccc(OC(F)(F)F)cc1)c1ccc2c(c1)no[n+]2[O-],3.5,2.5,nt,-4,-3.1,nt,23
CCC12CN3CCN(CC(C3)/C1=N\NC(=O)c1ccc(Cl)cc1)C2,-0.8,0.8,14%,-10,2.5,2,-5
O=C(CCCC(=O)NN=Cc1ccc(Cl)cc1Cl)NN=Cc1ccc(Cl)cc1Cl,nt,-1.0,-5%,nt,nt,nt,-13
S=C(NCCc1ccc(Cl)cc1)NC1CC1,4.3,-1.9,-13%,6,4.3,nt,4
CCCc1nnc(NC(=O)CSc2nc3ccccc3[nH]2)s1,6.0,1.0,4%,24,-9.3,21,-4
N=C1C=CC=C2C1=NC1(CCCCC1)N2O,-1.4,2.4,?,-14,-2.3,66,3
COc1ccc(Cl)cc1N/C(N)=N/c1nc(CSc2ccc(C)cc2)cc(=O)[nH]1,0.8,-1.8,-4%&4%,0,-1.8,-4,0
CCOC(=O)CCc1c(C)nc2ncnn2c1C,-3.8,3.0,-4%,-10,0.5,8,2
CC(NC(=O)COc1ccccc1)C(=O)NC1=NCCS1 (centres undefined),5.4,1.4,-3%,-7,-7.5,-22,-3
CC1CCC(C(C)C)C(OC(=O)COC(=O)c2cc(O)ccc2N)C1 (centres undefined),3.8,1.9,5%,48,-1.1,5,-2
Cn1c(NC(=O)c2ccccc2)cc(=O)n(C)c1=O,?,-0.5,1%,-6,nt,nt,16
Cn1c(C(=O)N2CCCC(C(=O)NCc3cccs3)C2)cc2sccc21 (centres undefined),2.7,-0.8,33%,-7,-1.6,-2,-14
O=C(O)c1ccccc1-c1ccccc1C(=O)NCc1ccco1,-1.6,-8.0,3%,-15,-4.5,nt,-3
COc1ccc(CCNS(=O)(=O)c2cccc3nsnc23)cc1OC,0.7,1.0,-8%&14%,21,1.4,2,-3
Cc1ccc(NC(=S)N(Cc2cccc(Br)c2)CC2CCC(C(=O)O)CC2)cc1Cl (centres undefined),2.7,2.0,?,12,-5.5,-3,-3
